YopH PTP inh: inhibitors of Yersinia enterocolitica YopH tyrosine phosphatase. fluorescence Ex485/Em525. inhibition, %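 (about 10 µM by stock and volumes)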. 0.16% of 140,000 active. AID 898;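 active = inhibition of 50% or more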;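 note: controls were vehicle for no effect and minimum signal wells for full effect; inactives centre near -20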
RecA intein inh: blocks M. tuberculosis RecA intein splicing; P9WHJ3; cell-free RecA intein splicing, fluorescence; inhibition, %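 (about 9 µM by stock and volumes)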; 0.75% of 290,000 active; AID 2221; in the data active = inhibition above about 30%; inconclusive = no clear call, values can overlap the other calls;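 note: 0% = vehicle wells and 100% = reference inhibitor control wells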
Target sequence (P9WHJ3 whole entry, looked up): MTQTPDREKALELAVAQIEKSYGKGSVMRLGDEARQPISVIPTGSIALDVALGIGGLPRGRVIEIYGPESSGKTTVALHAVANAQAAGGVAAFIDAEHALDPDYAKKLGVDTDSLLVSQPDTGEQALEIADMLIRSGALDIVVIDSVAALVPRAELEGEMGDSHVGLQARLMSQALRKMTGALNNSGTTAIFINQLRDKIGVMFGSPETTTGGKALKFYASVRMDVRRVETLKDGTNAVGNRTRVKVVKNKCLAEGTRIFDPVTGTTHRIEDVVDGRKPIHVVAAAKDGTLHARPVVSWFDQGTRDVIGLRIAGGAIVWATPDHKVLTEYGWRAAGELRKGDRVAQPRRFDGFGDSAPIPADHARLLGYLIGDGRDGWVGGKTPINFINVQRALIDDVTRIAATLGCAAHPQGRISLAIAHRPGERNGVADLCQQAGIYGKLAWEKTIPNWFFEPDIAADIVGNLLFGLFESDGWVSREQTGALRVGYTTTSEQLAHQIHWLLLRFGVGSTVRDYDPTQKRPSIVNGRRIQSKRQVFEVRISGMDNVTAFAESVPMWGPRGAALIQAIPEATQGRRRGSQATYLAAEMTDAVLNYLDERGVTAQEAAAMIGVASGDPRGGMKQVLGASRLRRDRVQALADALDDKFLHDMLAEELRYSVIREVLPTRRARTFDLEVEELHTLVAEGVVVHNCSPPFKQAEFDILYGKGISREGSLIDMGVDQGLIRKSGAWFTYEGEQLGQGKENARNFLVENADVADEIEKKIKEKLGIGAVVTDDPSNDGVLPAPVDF
Arbovirus inh: blocks arbovirus infection | arbovirus infection cell-based antiviral screen | inhibition, % at 10 µM | 0.37% of 200,000 active | AID 1251;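 active = inhibition from about 30%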;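 note: bluetongue infection of BSR cells; cell survival read as ATP light after 72 h; 0% = infected wells without compound and 100% = uninfected wells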
Mtb growth: M. tuberculosis H37Rv growth inhibitors, H37Rv strain (AID 1626); M. tuberculosis H37Rv growth inhibition; higher % means a stronger effect; inhibition, % at 10 µM, or IC50 in µM where a hit was titrated; 0.95% of 220,000 active;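 active = confirmed in a dose series; inconclusive = inhibition above 80% but not taken into the dose series; inactive = below 80% or under 30% at every dose of the series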;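 note: bacteria incubated seven days before Alamar blue readout; 0% = bacteria only wells and 100% = bacteria with antibiotic wells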
Mtb betalactam: beta-lactam sensitization of Mtb H37Rv; AID 434955; M. tuberculosis H37Rv growth with meropenem, percent inhibition; hits of this screen are not shown here; inhibition, % at 25 µM; 0.27% of 330,000 active;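 active = about 74% or more and at least 40 points above the plate without the antibiotic, then above 30% in a dose series; inconclusive = first-round hits that could not be retested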;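 note: growth measured after seven days incubation then overnight dye step; 0% = bacteria only wells and 100% = bacteria with antibiotic; twin plates without the antibiotic show which effects depend on it; some results filed as inactive read as strong as hits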
Arbovirus inh repeat: also measured in Arbovirus inh; calls as there; inhibition, %; measured here: 10K subset replicate screen; many hits read low in the repeat;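 first of two repeat runs on a subset; 0% = infected and 100% = uninfected wells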
The depositor's hits bear a star; ? = inconclusive; · = not tested or not shown.

SMILES	YopH PTP inh	RecA intein inh	Arbovirus inh	Mtb growth	Mtb betalactam	others
CC(C)C(NS(=O)(=O)c1ccc2c(c1)oc(=O)n2C)C(=O)N1CCN(Cc2ccccc2)CC1 (centres undefined)	-47	·	6	-2%	-9	Arbovirus inh repeat=-2
CCCCc1ccc(NC(=O)c2ccc(N(C)S(C)(=O)=O)cc2)cc1	·	0.7	·	74%	52
c1ccc2c(-c3nnc4n3CCCCC4)cc(-c3ccncc3)nc2c1	-4	-0.4	3	65%	3
O=C1CC(/C=C/c2ccncc2)=Nc2ccccc2N1	·	2.2	-8	0%	5
O=C(NCCN1CCOCC1)c1ccc(NS(=O)(=O)c2cccc([N+](=O)[O-])c2)cc1	·	0.6	·	·	-10
COc1ccc(OCC(=O)NC(=O)c2ccccc2OC)c([N+](=O)[O-])c1	·	-1.1	·	·	-10
O=C(Nc1ccc2cn[nH]c2c1)c1ccc(Cl)c(S(=O)(=O)N2CCOCC2)c1	-27	2.1	-11	-15%	10
COc1ccc(-c2ccc(SCc3cccnc3)nn2)cc1OC	·	-4.0	3	10%	12
NC(=O)CC(NC(=O)c1ccccc1)c1ccc(NC2CCCCCCC2)c([N+](=O)[O-])c1 (centres undefined)	·	-0.2	·	·	6
COc1ccc(Cc2nnc(SCC(=O)c3ccc4c(c3)NC(=O)CO4)o2)cc1	·	2.7	·	·	0
COc1ccc(-c2nnn(CC(=O)N(CCCO)C(C(=O)NC3CCCC3)c3ccncc3)n2)cc1 (centres undefined)	·	-3.2	2	4%	1
O=C(CC(NC(=O)OCc1ccccc1)C(=O)O)OCc1ccccc1 (centres undefined)	·	-0.5	7	3%	-2

Looked up by compound from above:
SMILES	YopH PTP inh	RecA intein inh	Arbovirus inh	Mtb growth	Mtb betalactam	others
COc1ccc(-c2nnn(CC(=O)N(CCCO)C(C(=O)NC3CCCC3)c3ccncc3)n2)cc1 (centres undefined)	·	-3.2	2	4%	1
COc1ccc(Cc2nnc(SCC(=O)c3ccc4c(c3)NC(=O)CO4)o2)cc1	·	2.7	·	·	0
O=C1CC(/C=C/c2ccncc2)=Nc2ccccc2N1	·	2.2	-8	0%	5

(continued)
SMILES	YopH PTP inh	RecA intein inh	Arbovirus inh	Mtb growth	Mtb betalactam	others
COc1ccc(C(c2c(C)[nH]n(-c3ccccc3)c2=O)c2c(C)[nH]n(-c3ccccc3)c2=O)cc1OC	6	98*	1	2%	7
O=c1cc(CSCc2ccc(Cl)cc2)[nH]c(=O)[nH]1	·	0.3	·	7%	-5
COc1c(C(=O)Nc2ccc(CN3CCOCC3)cc2)cc2ccccc2c1Br	·	-1.6	·	·	70
CN(/N=C/Cc1nnnn1-c1ccc(Cl)cc1)c1ccccc1	·	-0.4	·	-8%	3
COc1ccc(C(=O)n2nc(-c3ccc(Cl)cc3)nc2N)cc1OC	-56	1.2	9	·	-6
Cc1ccc(S(=O)(=O)N2CCC[C@H]2C(=O)OC(C)C(=O)Nc2ncc(Cl)cc2Cl)cc1 (some centres undefined)	-48	-4.6	8	0%	-1
C#CCOc1ccc(Br)cc1/C=N/O	-1	1.0	-1	8%	-5
CCOC(=O)[C@@H]1CCNC[C@@H]1c1ccccc1	-22	-0.8	11	-4%	14
CCOC(=O)c1sc(N2C(=O)C(O)=C(C(=O)c3ccco3)C2c2cccc(Cl)c2)nc1C (centres undefined)	·	3.4	·	·	4
COc1cccc(OC)c1C(=O)Nc1cc(C)nn1-c1nc2ccccc2[nH]1	·	-1.9	-7	53%	11
COc1cccc(N2CC(O)=C(c3nc4ccccc4s3)C2=N)c1	·	-0.1	-21	6%	-3
CCCn1nc(C(=O)N2CC(=O)Nc3ccccc32)c2ccccc2c1=O	-34	2.5	-24	-3%	-2

For reference, seven of the compounds above.
SMILES	YopH PTP inh	RecA intein inh	Arbovirus inh	Mtb growth	Mtb betalactam	others
COc1ccc(C(c2c(C)[nH]n(-c3ccccc3)c2=O)c2c(C)[nH]n(-c3ccccc3)c2=O)cc1OC	6	98*	1	2%	7
O=c1cc(CSCc2ccc(Cl)cc2)[nH]c(=O)[nH]1	·	0.3	·	7%	-5
COc1c(C(=O)Nc2ccc(CN3CCOCC3)cc2)cc2ccccc2c1Br	·	-1.6	·	·	70
CN(/N=C/Cc1nnnn1-c1ccc(Cl)cc1)c1ccccc1	·	-0.4	·	-8%	3
COc1ccc(C(=O)n2nc(-c3ccc(Cl)cc3)nc2N)cc1OC	-56	1.2	9	·	-6
Cc1ccc(S(=O)(=O)N2CCC[C@H]2C(=O)OC(C)C(=O)Nc2ncc(Cl)cc2Cl)cc1 (some centres undefined)	-48	-4.6	8	0%	-1
C#CCOc1ccc(Br)cc1/C=N/O	-1	1.0	-1	8%	-5

Remaining list, next part:
SMILES	YopH PTP inh	RecA intein inh	Arbovirus inh	Mtb growth	Mtb betalactam	others
Cc1cccc(C2CC(c3ccc(Br)cc3)Nc3nc(N)nn32)c1 (centres undefined)	-63	1.4	4	1%	-4
Cc1ccc(OCCCCn2ccnc2)c([N+](=O)[O-])c1	·	-1.8	-15	0%	1
COc1ccccc1NC(=O)CSc1ncn[nH]1	-2	-2.6	5	-10%	10	Arbovirus inh repeat=1
COC(=O)c1ccccc1N=Cc1c(O)[nH]c(=S)[nH]c1=O	·	-8.8	1	·	-2
CCOC(=O)N1CCN(C(=O)c2c(O)c3cccc4c3n(c2=O)CC4)CC1	-14	2.1	1	-6%	-19
O=C(Nc1ccccc1)Nc1cccc(C(F)(F)F)c1	·	3.1	17	0%	0
Cc1nc(N[C@@H](Cc2c[nH]c3ccccc23)C(=O)O)c2oc3ccccc3c2n1	-29	2.9	-3	·	-4
CC1CC(C)CN(C(=O)C(NS(=O)(=O)c2ccc(Br)s2)c2ccccc2)C1 (centres undefined)	-18	9.6	-18	5%	1
C/C(=N\NC(=O)c1ccc(Cl)c(Cl)c1)c1ccc(Br)s1	-14	-5.4	-23	?	13
CSCCC(=O)N1CCC(n2nccc2NC(=O)CCCc2ccccc2)CC1	·	0.3	·	·	-3
NS(=O)(=O)c1ccc(CCN=C(NS(=O)(=O)c2cccs2)c2ccccc2)cc1	·	2.1	2	7%	13
Cn1c(=O)c2c(nc(CN3CCc4ccccc4C3)n2Cc2ccccc2)n(C)c1=O	-12	6.7	3	0%	1
CSc1ncnc2c1cnn2-c1ccc(C)cc1C	·	0.4	-6	11%	4
O=C(C1CCCCC1)N1CCN(c2ccnc3cc(Cl)ccc23)CC1	·	2.1	·	7%	6
Cc1cc2nc(C)n(CCCNC(=O)Nc3ccc(C#N)cc3)c2cc1C	-8	-1.4	-1	-1%	-2
Cc1cc(C)c(S(=O)(=O)N2CCCOC2CNC(=O)C(=O)NCc2cccnc2)c(C)c1 (centres undefined)	·	0.3	11	7%	-1
CCOC(=O)[C@@H]1[C@H]2COc3ccc(Br)cc3[C@H]2N2C(=O)N(c3ccc(F)cc3)C(=O)[C@]12C	·	5.5	·	·	-2
COc1cc(CN2CC(=O)N(c3ccc(C)c(Cl)c3)C2=S)cc(OC)c1OC	·	2.4	·	·	8
COc1ccc(C(=O)Nc2nnc(SCC(=O)NC3CCCC3)s2)c(OC)c1	·	-4.1	·	·	1
CCOc1ccc(C(C(=O)NC2CCCCC2)N(C(=O)c2csnn2)C2CC2)cc1 (centres undefined)	·	0.6	·	·	7
O=C(Nc1ccccc1)OC1CCC2CC1CCC2OC(=O)Nc1ccccc1 (centres undefined)	-8	5.1	-20	34%	99
O=C(CSc1oc(-c2cccs2)nc1S(=O)(=O)c1ccccc1)NC1CCCCC1	2	·	-21	-2%	-6
O=C(Nc1ccccc1)/C(=C/c1ccccc1)NC(=O)c1ccco1	·	0.7	8	0%	1
O=[N+]([O-])c1cc(CN2CCN(c3cccc(C(F)(F)F)c3)CC2)c2cccnc2c1O	·	-0.3	-28	13µM*	87
COC(=O)c1[nH]c2ccc(Br)cc2c1NC(=O)CN1CCN(C2CCCCC2)CC1	-25	3.2	-43	3%	7
O/N=C1\CC2(Cc3nonc31)OCCO2	-52	0.9	0	-4%	3
O=C(O)c1ccc(-c2noc(-c3ccccc3Cl)n2)cc1	·	-0.9	·	-11%	-2
COC(=O)N/N=C(C)/C=C/c1ccccc1	16	·	·	-4%	-9
COc1ccc(N2CCN(C(=O)COC(=O)CCS(=O)(=O)c3ccc(C)cc3)CC2)cc1	·	2.8	·	·	-3
O=C(Nc1cccc(F)c1)/C(=C\c1cccnc1)NC(=O)c1cccs1	-24	-0.6	3	-6%	-7
CCOc1ccccc1NC(=O)NCc1ccccc1F	·	3.9	-11	1%	-3
COc1ccccc1N1CCN(C(CNS(=O)(=O)c2ccc(C)cc2)c2cccnc2)CC1 (centres undefined)	-2	0.0	-2	7%	-6
Clc1ccc(SCCCCn2ccnc2)cc1	-9	-6.0	-7	10%	85	Arbovirus inh repeat=-2
COc1cccc(C(=O)NCCn2ccc3ccccc32)c1	1	0.9	-6	4%	-8	Arbovirus inh repeat=-1
CCSc1nnc(NC(=O)CSc2nc3c(c(=O)n2CCOC)SC(C)C3)s1 (centres undefined)	·	1.1	8	3%	2	Arbovirus inh repeat=5
COc1cccc(C(C(=O)NC2CCCC2)N(C(=O)CNC(=O)c2ccco2)c2cccnc2)c1 (centres undefined)	·	4.1	·	·	-4
O=C(Nc1nc2ccccc2s1)Nc1ccc(F)cc1F	·	-0.2	·	·	-5
Oc1ccc(-c2n[nH]c(=S)n2Cc2ccccc2)cc1	-28	1.5	-1	0%	22	Arbovirus inh repeat=4
COc1cc(-c2c(NC(=O)c3ccco3)oc3c(C)cccc3c2=O)cc(OC)c1OC	·	-3.6	·	·	5
COc1cc(C2C(C#N)=C(N)N(c3sc4c(c3C#N)CCCC4)C3=C2C(=O)CC(C)(C)C3)cc(OC)c1OC (centres undefined)	-32	-2.0	-19	-8%	-11
[NH-]c1ncnc2c1N=C[N+]2=CC=CCO	·	-0.4	·	-2%	3
Cc1ccc(-n2nc3c(=O)n(CC(=O)NCCC4=CCCCC4)nc(C)c3c2C)cc1	·	2.0	·	·	0
CC1(C)CC(NC(=O)C2CCN(S(=O)(=O)c3ccccc3C(F)(F)F)CC2)CC(C)(C)N1	·	-0.3	·	·	-10
CCn1nc(C)c(CN2CCCC(CNS(=O)(=O)c3ccc(OC)cc3)C2)c1C (centres undefined)	·	1.0	·	·	-1
CCN(CC)C(=O)CC(c1ccc(F)cc1)c1ccc(OC(C)C)cc1 (centres undefined)	-11	·	2	-3%	·
O=C(CSc1nnc(-c2ccncc2)o1)Nc1nncs1	·	-2.1	·	·	6
CC(=O)c1ccc(N2CCN(S(=O)(=O)c3c(C)[nH]c(C)c3C(=O)N3CCCC3)CC2)cc1	·	-0.5	·	·	-1
Cc1cccc(N2CCN(C(c3ccc(N(C)C)cc3)c3nnnn3C(C)(C)C)CC2)c1C (centres undefined)	-7	-2.1	-7	-7%	0
CCOC(=O)c1sc2nc(SCC(=O)NCc3ccco3)n(Cc3ccccc3)c(=O)c2c1C	-17	-0.8	1	-5%	15
CCOc1ccc2nc(SCC(=O)NC(=O)NCc3ccco3)sc2c1	-29	4.5	8	53%	91
O=C(C1=NN[C@@H]2C(=O)N(c3ccccc3C(F)(F)F)C(=O)[C@H]12)c1cnccn1	·	5.7	·	-4%	1
O=C(CC1SC(=O)N(c2ccccc2)C1=O)Nc1ccccc1 (centres undefined)	-32	·	0	-1%	8
CCCC(=O)Nc1ccc(NC(=O)C23CC4CC(CC(C4)C2)C3)cn1	-49	-1.6	8	-2%	-1
CN(C)N1C(=O)CC(NNC(=O)c2ccncc2)C1=O (centres undefined)	-32	-2.4	-5	79%	97
O=C(O)CC(SCC(=O)Nc1ccccc1)C(=O)O (centres undefined)	·	-0.8	6	2%	-11
CCOc1cc(CNCCc2cccc(F)c2)ccc1OC	·	-1.7	·	·	4
Cn1c(-c2cccc(OCc3ccccc3)c2)nc2c1c(=O)[nH]c(=O)n2Cc1ccccc1	-7	·	-33	-4%	47
COc1cc2cc(Br)cc(Br)c2nc1C	-10	4.4	9	11%	-5
COC(=O)c1sc2cc(C(F)(F)F)cnc2c1-c1cccnc1	-8	0.2	8	-9%	12
O=C(COC(=O)/C=C/c1cccc([N+](=O)[O-])c1)NCC1CCCO1 (centres undefined)	·	-7.9	10	0%	-5
Additional structures
SMILES	YopH PTP inh	RecA intein inh	Arbovirus inh	Mtb growth	Mtb betalactam	others
C/C=C(/C)C(=O)Nc1cccc(C2=NOC3(C2)C[C@@H](C(N)=O)N(C(=O)C2(C)CC2)C3)c1 (some centres undefined)	·	-0.3	·	-5%	-12
CC(=O)c1c(O)c2cccc3c2n(c1=O)CCC3	·	-1.8	·	·	9
CCn1c(NC(=O)C(C)C)c(-c2cccs2)c(=O)c2ccccc21	·	-0.5	·	11%	-12
Cc1c(C(=O)NCc2cccnc2)oc2ccc(S(=O)(=O)N3CC(C)CC(C)C3)cc12 (centres undefined)	-25	4.0	-9	·	8	Arbovirus inh repeat=-6
O=C(O)c1ccccc1-c1ccccc1C(=O)Nc1ccc(OC(F)(F)F)cc1	·	-0.2	·	·	8

Bioassay records: PubChem, several laboratories

This is a subset; the hit share may differ from the screen's.
